# MT1-MMP act inh: blocks activation of human MT1-MMP | P50281 | HT1080 RFP-PRO-GFP cells, GFP/RFP ratio fluorescence, overnight; percent of plate control window, DMSO zero | GFP/RFP ratio change, % at 20 µM | hit rate 0.061% among 360,000;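 active = GFP/RFP ratio change of at least 30% with cell ATP level not reduced by more than half and red fluorescence within 50% of control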; also: strong numbers were not always called active
#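 Material – HT1080 RFP-PRO-GFP cells · Control set – DMSO wells and RFP-L50D-GFP cells · Incubation – overnight cell settling, then overnight compound exposure, 37 °C, 5% CO2 · Compound dosing – single-point 20 µM compound, 1% DMSO · Read-out – GFP/RFP fluorescence ratio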
# PABP polyA inh: PABP-poly(A) binding inhibition | AID 2014 | PABP-poly(A) RNA binding, fluorescence polarization | inhibition, % at 35 µM | hit rate 1% among 290,000;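 active = 50% or more with normal probe brightness, or confirmed in later tests; inconclusive = above 50% with abnormal brightness, or retests that disagree; inactive = below 50% or failed in later tests; about a fifth of its hits are not listed in these tables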;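 also: calls also rest on retests at 20 µM and on dose response follow-up; controls were probe without protein and protein plus probe with vehicle; some compounds called inactive have numbers as strong as hits; many hits fall short of the cut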
# eIF4H inh: inhibitors of RNA binding by human eIF4H | Q15056 | eIF4H fluorescence polarization binding assay | inhibition, % at 35 µM | hit rate 0.94% among 290,000 | AID 2012;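 active = 50% or more with normal probe brightness, or confirmed in later tests; inconclusive = above 50% with abnormal brightness, or retests that disagree; inactive = below 50% or failed in later tests; about a fifth of its hits are not listed in these tables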;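 also: calls also rest on retests at 20 µM and on dose response follow-up; 0% = protein and probe with vehicle and 100% = probe without protein; strong numbers were not always called active; many hits fall short of the cut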
# CSC inhib: cancer stem cell inhibition | hit rate 1.1% among 300,000 | AID 2717 | cancer stem cell-like cells viability, luminescence | inhibition, % at 7.5 µM;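 active = mean at 75% or more and at least half the replicates too; inconclusive = mean and replicates disagree; tested in HMLE shEcad cells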;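 also: 0% = median of negative and 100% = median of positive control wells; the first replicate is given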
# HIV Env fusion: blocks HIV Env-driven cell-cell fusion; hit rate 1.1% among 360,000; HeLa-JRFL Env/CEM21 cell fusion, luciferase; inhibition, % at 12.3 µM;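 active = mean replicate inhibition score of at least 50 and every replicate individually at or above 50; inconclusive = only one of the two criteria met; inactive = mean below 50 and not all replicates reaching 50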;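 also: 0% = plate neutral controls and 100% = maraviroc near 300 nM; one replicate is shown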
# Rce1 inhib: yeast Ras-converting enzyme inhibition; calls only; hit rate 0.27% among 290,000; yeast membranes, quenched prenylated peptide cleavage fluorescence; Q03530;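 active = fall in fluorescence gain of 50% or more versus controls, with final raw signal at or below 3038400; inconclusive = same 50% fall but final raw signal above 3038400; inactive = fall in fluorescence gain under 50%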;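 also: plate controls were neutral control wells for no effect and wells lacking membranes for full effect; tested at 10 µM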
# Target sequence (Q03530 whole entry, looked up): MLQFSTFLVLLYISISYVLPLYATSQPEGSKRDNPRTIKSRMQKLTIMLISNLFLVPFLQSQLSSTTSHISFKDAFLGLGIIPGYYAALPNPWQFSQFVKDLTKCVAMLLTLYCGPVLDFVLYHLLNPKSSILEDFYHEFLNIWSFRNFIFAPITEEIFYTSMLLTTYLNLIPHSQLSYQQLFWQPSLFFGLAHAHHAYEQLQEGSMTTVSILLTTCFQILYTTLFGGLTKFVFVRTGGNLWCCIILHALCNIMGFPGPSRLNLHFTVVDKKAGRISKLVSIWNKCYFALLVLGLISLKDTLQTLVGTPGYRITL
# UUG fidelity: modulators of start codon recognition fidelity in yeast. S. cerevisiae UUG-firefly luciferase reporter, luminescence/redox ratio. activity score, % at 18.7 µM. hit rate 0.13% among 350,000. AID 602363;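 active = replicate mean at a twofold rise or more, about +100% in these data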;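 also: firefly luciferase made from a UUG start codon reports start codon fidelity; reporter light over untreated wells divided by growth signal over untreated wells; some hits fall short of that in this replicate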
# MT1-MMP act inh RFP: further read-out of MT1-MMP act inh, marked with its call; RFP signal change, %; measured here: RFP expression control read;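 0 = vehicle wells; hits needed this value within 50% of zero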
# Numbers without * were called inactive; i = inactive; ? = inconclusive; . = no result given; & = joins results of further samples.
SMILES,MT1-MMP act inh,MT1-MMP act inh RFP,PABP polyA inh,eIF4H inh,CSC inhib,HIV Env fusion,Rce1 inhib,UUG fidelity
CCC1CCCCN1S(=O)(=O)c1ccc(NC(=O)c2snnc2C)cc1 (centres undefined),0,-24,-5,-13,.,5,i,-36
NC(=O)C1CCC(NC(=O)OCc2ccccc2)CC1 (centres undefined),0,1,4,-4,-4,.,i,-8
Oc1c(Br)cc(Br)cc1C=Nc1cccnc1,-7,4,31,32,42,8,i,-18
Cc1sc2ncnc(Sc3nnnn3-c3ccc(Cl)cc3)c2c1C,-11,-12,0,4,31,50*,i,-13
C/C(=N\NC(=O)c1ccccc1C)c1ccc(N2CCOCC2)cc1,12,10,10,-8,-7,.,i,1
Cc1cccc(NC(=O)CN2CCN(C(=O)C3CCC3)CC2)c1C,3,1,.,.,.,-14,.,-3
CCc1ccc(/C=N/Nc2nn[nH]n2)cc1,5,0,6,5,-5,-104,i,-2
CCC(c1nnnn1C1CCCC1)N1CCN(C(=O)c2ccco2)CC1 (centres undefined),-6,6,4,8,-1,.,i,-1
O=C(/C=C/NCc1cccnc1)c1ccc(Br)cc1,2,-2,.,.,-7,-3,i,.
Cn1c(=O)c2c(SCC(=O)Nc3nccs3)nc(C3CC3)nc2n(C)c1=O,-1,-3,-2,-7,-3,-3,i,-1
N#C/C(=C\c1ccccc1C(F)(F)F)C(=O)Nc1ccccc1,-7,-3,-7,-8,9,-12,i,.
Cc1cc(Cl)c(OCCn2ccnc2)c(Br)c1,3,-7,16,5,45,8,i,-2
Cc1ccc(CS(=O)Cc2ccc(C(=O)NCC(C)c3ccccc3)o2)cc1 (centres undefined),6,6,-4,-2,-3,5,i,1
COc1ccc(CNC(=O)C2CCCN(c3ncnc4c3nc3n4CCCCC3)C2)cc1 (centres undefined),-2,-2,4,-2,-3,.,i,.
Cc1ccc2c([N+](=O)[O-])cccc2n1,-3,1,-2,-10,-7,3,i,.
Cc1c(N=C/C=C2/N(C)c3ccccc3C2(C)C)c(=O)n(-c2ccccc2)n1C,0&-7,0&10,12,12,-1,11,i,12
O=C(c1c(Cl)nc2sccn12)N(C(=O)c1c(Cl)nc2sccn12)c1ccc(Cl)cn1,-6,-1,-8,0,2,.,i,-18
O=C(OCC(=O)N1CCOCC1)C(c1ccccc1)c1ccccc1,-1,1,9,-2,.,.,i,.
O=C(COC(=O)c1ccc2c(c1[N+](=O)[O-])C(=O)c1ccccc1C2=O)NC1CC1,34,52,10,-4,1,22,i,.
Oc1nc(Nc2ccccc2)sc1/C=C1\C=Nc2ccccc21,-11,-3,-4,-2,?,-3,i,-5
CC(C)(C)NS(=O)(=O)c1ccc(NC(=O)C2CC(=O)N(CCc3ccc(F)cc3)C2)cc1 (centres undefined),0,2,11,-5,.,-11,i,-14
CCCn1nc(C(=O)NCC(C)(C)N2CCOCC2)c2ccccc2c1=O,0,2,-4,-4,6,.,i,-19
CCOc1cccc2sc(N(CCN(CC)CC)C(=O)c3ccc(S(=O)(=O)N4CCCC4)cc3)nc12,1,3,3,5,-1,11,i,13
Cn1c2c(c(=O)n(C)c1=O)CN(CCN1CCNCC1)CN2,4,2,0,4,1,.,i,.
Cc1cc(=O)c(C(=O)Nc2cccc(N3CCCC3=O)c2)nn1-c1ccccc1F,3,8,.,.,-15,.,.,0
COc1cccc(NC(=O)CN(C)C(=O)CC(C)c2ccccc2)c1 (centres undefined),0,-2,-6,-12,-8,2,i,-34
CC(C)C(NC(=O)c1ccc(F)cc1)C(=O)N1CCN(C(=O)c2ccco2)CC1 (centres undefined),2,4,.,.,-11,.,.,5
Cc1ccc(C)c(SCC(=O)NNC(=O)c2ccccc2)c1,2,3,5,-8,5,17,i,-4
C1COCCNCCOCCOCCOCCN1,-3,-2,-4,5,4,-3,i,-6
O=C(COc1ccc(F)cc1)NCCNC(=O)COc1ccc(F)cc1,0,0,.,.,-1,.,.,-3
Cc1ccc2nc(-c3ccccc3)nc(SC(C)C(=O)NCc3cccs3)c2c1 (centres undefined),.,.,6,-3,4,.,i,.
Cc1cccc(OCCCC(=O)Nc2nc3ccccc3[nH]2)c1,-2,-1,-3,-1,84*,-4,i,.
O=C(OCCN(CCOC(=O)c1ccncc1)S(=O)(=O)c1cccs1)c1ccncc1,4,-1,10,-1,-11,.,i,-13
Cc1nn(-c2ccc(Cl)cc2Cl)c(=O)c2ccccc12,4,0,-4,-7,-7,.,.,-1
CC(=O)N1CCOc2ccc(S(=O)(=O)NCCc3ccc(S(N)(=O)=O)cc3)cc21,2,2,4,6,2,1,i,-3
O=C(Nc1nc2c(s1)CCCC2)c1cc(-c2ccccc2)nc2ccccc12,-12,-9,2,-8,11,34,i,.
CCOC(=O)C(NC(=O)Nc1ccc(C(N)=O)cc1)(c1ccccc1)C(F)(F)F (centres undefined),-4,2,9,-2,-12,-4,i,2
CN(CCc1cnn(C)c1)C(=O)CCc1nnc(CCCc2ccccc2)o1,4,3,-8,-12,39,-43,i,.
O=C(c1cn(-c2ccccc2)nc1-c1ccc(F)cc1)N1CCOCC1,-1,1,-7,2,-6,-45,i,-6
COc1ccc(Nc2nc(-c3c(C)nc4ncccn34)cs2)cc1,13,-6,8,2,.,-313,.,.
C=CCNc1nc(NCC)nc(N2CCOCC2)n1,7,7,1,7,7,.,i,-11
c1ccc2c(c1)ncn2-c1cncnc1,3,4,.,.,.,12,.,-5
COc1ccc(S(=O)(=O)N2CCCCCC2)cc1NC(=O)Cc1ccccc1,4,2,3,1,.,10,i,.
CC(=O)c1ccc(NC(=O)c2ccc([N+](=O)[O-])o2)cc1,11,-1,3,10,80*,-71,i,-31
O=C(Nc1ccc2snnc2c1)Nc1cccc2ccccc12,.,.,-8,-1,29,.,i,-14
Cc1ccc(CNC(=O)CNC(=O)c2c(C)nn(C)c2Cl)cc1,3,1,-4,-3,0,-10,i,.
COc1cc(C(=O)COC(=O)c2c(C)noc2C)cc(OC)c1OC,6,1,.,.,-4,21,.,2
O=C(Nc1nc2c(s1)CCCC2)c1cc2n(n1)C(C(F)(F)F)CC(C1CC1)N2 (centres undefined),12,0,1,-12,-3,.,i,.
CNC(=S)Nc1cc(C(=O)N2CCCC2)ccc1N1CCCC1,4,5,21,-3,-15,-9,i,.
COc1ccccc1-c1nn(Cc2ccccc2)cc1/C=C/C(=O)O,-6,-2,-6,-7,0,-1,i,5
O=C(CCCN1C(=O)/C(=C\c2cccs2)SC1=S)Nc1cccnc1,9,11,-6,-17,-4,.,i,-15
CCOc1ccc2nc(SCC(=O)N(CCOC)c3c(N)n(Cc4ccccc4)c(=O)[nH]c3=O)[nH]c2c1,-8,-2,.,.,6,-44,i,.
CCOC(=O)/C=c1\s/c(=C\c2ccc3cc(OC)ccc3c2)c(=O)n1CC(=O)NCC1CCCO1 (centres undefined),-2,0,?,?,21,.,i,.
C#CCOc1ccc(Cl)cc1/C=C1/C(=O)ON=C1C,2,8,-6,-17,-1,-8,i,9
CN1C(=O)C(=O)/C(=C(/O)c2ccccc2)C1c1ccccc1 (centres undefined),-1,2,-1,-7,6,-68,i,-1
CCOC(=O)N1CCC(=NNS(=O)(=O)c2cccc([N+](=O)[O-])c2)CC1,-3,1,6,-2,-15,-2,i,.
COC(=O)CSC1=C(C#N)C(c2ccc(C)o2)CC(=O)N1 (centres undefined),-5,-13,-2,-1,-18,-14,i,18
CC(C)(CO)NCc1cccs1,3,1,0,-5,-16,0,i,.
O=C(c1nc(SCc2ccc([N+](=O)[O-])cc2)n2ccccc12)C(F)(F)F,-2,2,3,-2,-3,12,i,.
CCOc1cc(C=O)cc(Br)c1OCC(N)=O,0,-4,-10,-7,18,-14,i,.

# Next results.
SMILES,MT1-MMP act inh,MT1-MMP act inh RFP,PABP polyA inh,eIF4H inh,CSC inhib,HIV Env fusion,Rce1 inhib,UUG fidelity
CC(C)(C)NS(=O)(=O)c1ccc(/C=C/C(=O)O)cc1,-2,2,-2,0,0,9,i,-12
CC(C)CCNC(=O)CC1C(=O)N(Cc2ccccc2)C(C)c2nc3ccccc3n21 (centres undefined),4,8,-9,-17,.,-84,i,-14
Cn1cc(S(=O)(=O)NC[C@H]2O[C@@H](n3ccc(=O)[nH]c3=O)[C@H](O)[C@@H]2O)cn1,3,5,.,.,.,3,.,-14
CC(C)NCC#CCOc1ccc(Cl)cc1,-3,2,-6,3,-13,-2,i,.
Nc1cc(OC(=O)c2ccccc2Br)nn1S(=O)(=O)c1ccccc1,5,3,25,10,-13,.,i,-34
Cc1cc(C)nc(S/C=C/C(=O)c2ccc(F)cc2)n1,.,.,-8,-2,20,.,i,.
O=C1Nc2cc(C(=O)NCCCN3CCCC3)ccc2S/C1=C/c1ccccc1F,-2,1,-14,-17,40,11,i,-19
CN1C(=O)CC(Nc2cccc3cccc(N)c23)C1=O (centres undefined),-10,-10,4,?,-4,.,i,.
COc1cc(C2C(C#N)=C(N)Oc3n[nH]c(-c4cccs4)c32)cc(OC)c1O (centres undefined),-35,1,16,6,-6,18,i,-16
O=C(CCc1ccc(S(=O)(=O)N2CCOCC2)cc1)Nc1cc(Cl)ccc1N1CCOCC1,2,2,6,-3,.,.,i,-28
CCN=c1sc(C(=O)OC)cc(=O)n1CC,-7,-2,2,5,14,-64,.,-11
CCCC(=O)Nc1cc(S(=O)(=O)N2CCOCC2)ccc1N1CCCCC1,0,-3,.,.,-11,-1,.,.
O=C1c2ccccc2C2(c3ccccc3)N1CCN2C(=O)C(Cl)(Cl)Cl (centres undefined),4,-2,2,3,-15,-15,i,-15
CC(C)CNC(=O)C1(C)CCCN1C(=O)CSc1ccccc1 (centres undefined),1,4,.,.,.,4,.,1
CCn1cc([N+](=O)[O-])c(C(=O)Nc2ccn(Cc3ccccc3)n2)n1,-6,-4,31,1,-8,-3,i,-28
Clc1cccc(-c2nc(-c3ccccn3)no2)c1,-7,-1,7,-3,19,-4,i,-79
O=C(O)c1ccccc1-c1cn2cc(Cl)ccc2n1,-3,2,-4,23,-1,1,i,.
C=CCn1c(Cc2ccccc2)nnc1SCc1nc2ccccc2c(=O)[nH]1,5,-1,-4,3,-2,7,i,.
COc1ccc(C2=NO[C@@H]3[C@@H]4C[C@@H]([C@H]5C(=O)N(C)C(=O)[C@@H]45)[C@H]23)c(OC)c1,1,1,-7,-8,-6,-6,i,6
COC(=O)Nc1ccccc1C(=O)N1CCN(c2ccc(C)cc2)CC1,0,4,26,0,-10,-14,i,.
O=C(Nc1ccc2ccccc2n1)Nc1ccccc1F,3,1,-12,-6,3,-10,i,-12
Cc1[nH]ccc2c1[nH]c1cc(=O)ccc12,-17,-10,5,-7,-6,13,i,1
Cc1ccc(SCC(=O)NCC(C)C)cc1,-2,2,-5,-2,-8,-61,i,-7
O=C(NCCc1ccccc1)c1ccc2nc(-c3ccco3)c(-c3ccco3)nc2c1,2,-1,90*,88*,-8,.,i,-11
Nc1nc2ccccc2n1/N=C/c1ccc(Br)cc1,2,-1,-6,0,-20,.,i,-12
CCOC(=O)c1cc(-c2ccc(Cl)cc2)nc2c1c(=O)[nH]c(=O)n2CCOC,1,1,-2,2,-9,11,i,.
O=C(NC(=S)N1CCOCC1)c1ccc(F)cc1,.,.,7,3,-15,-6,i,-12

# High-throughput results as filed in PubChem BioAssay.

# These rows are one share of the data; the hit share may differ from the screen's.
